Mtb H37Rv: M. tuberculosis H37Rv growth inhibitors, H37Rv strain (AID 1626). M. tuberculosis H37Rv growth inhibition; higher % means a stronger effect. 220,000 tested, 0.95% active. one-dose inhibition, % at 10 µM; IC50 in µM for titrated hits;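 active means confirmed in a dose series; inconclusive means inhibition above 80% but not taken into the dose series; inactive means below 80% or under 30% at every dose of the series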;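 further: bacteria incubated seven days before Alamar blue readout; 0% = bacteria only wells and 100% = bacteria with antibiotic wells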
Arbovirus anti: arbovirus infection inhibition | 200,000 tested, 0.37% active | arbovirus infection cell-based antiviral screen | AID 1251 | inhibition, % at 10 µM;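 active means inhibition from about 30%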;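 further: bluetongue infection of BSR cells; cell survival read as ATP light after 72 h; 0% = infected wells without compound and 100% = uninfected wells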
YopH PTP inh: blocks Yersinia enterocolitica YopH tyrosine phosphatase. fluorescence Ex485/Em525. inhibition, %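 (about 10 µM by stock and volumes)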. 140,000 tested, 0.16% active. AID 898;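 active means inhibition of 50% or more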;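 further: controls were vehicle for no effect and minimum signal wells for full effect; inactives centre near -20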
Mtb bLac sens: beta-lactam sensitization of Mtb H37Rv | M. tuberculosis H37Rv growth with meropenem, percent inhibition; hits of this screen are not shown here | AID 434955 | 330,000 tested, 0.27% active | inhibition, % at 25 µM;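 active means about 74% or more and at least 40 points above the plate without the antibiotic, then above 30% in a dose series; inconclusive means first-round hits that could not be retested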;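 further: growth measured after seven days incubation then overnight dye step; 0% = bacteria only wells and 100% = bacteria with antibiotic; twin plates without the antibiotic show which effects depend on it; some results filed as inactive read as strong as hits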
RecA intein inh: inhibitors of M. tuberculosis RecA intein splicing | P9WHJ3 | cell-free RecA intein splicing, fluorescence | inhibition, %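 (about 9 µM by stock and volumes)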 | 290,000 tested, 0.75% active | AID 2221; in the data active means inhibition above about 30%; inconclusive means no clear call, values can overlap the other calls;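 further: 0% = vehicle wells and 100% = reference inhibitor control wells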
Target sequence (P9WHJ3 whole entry, looked up): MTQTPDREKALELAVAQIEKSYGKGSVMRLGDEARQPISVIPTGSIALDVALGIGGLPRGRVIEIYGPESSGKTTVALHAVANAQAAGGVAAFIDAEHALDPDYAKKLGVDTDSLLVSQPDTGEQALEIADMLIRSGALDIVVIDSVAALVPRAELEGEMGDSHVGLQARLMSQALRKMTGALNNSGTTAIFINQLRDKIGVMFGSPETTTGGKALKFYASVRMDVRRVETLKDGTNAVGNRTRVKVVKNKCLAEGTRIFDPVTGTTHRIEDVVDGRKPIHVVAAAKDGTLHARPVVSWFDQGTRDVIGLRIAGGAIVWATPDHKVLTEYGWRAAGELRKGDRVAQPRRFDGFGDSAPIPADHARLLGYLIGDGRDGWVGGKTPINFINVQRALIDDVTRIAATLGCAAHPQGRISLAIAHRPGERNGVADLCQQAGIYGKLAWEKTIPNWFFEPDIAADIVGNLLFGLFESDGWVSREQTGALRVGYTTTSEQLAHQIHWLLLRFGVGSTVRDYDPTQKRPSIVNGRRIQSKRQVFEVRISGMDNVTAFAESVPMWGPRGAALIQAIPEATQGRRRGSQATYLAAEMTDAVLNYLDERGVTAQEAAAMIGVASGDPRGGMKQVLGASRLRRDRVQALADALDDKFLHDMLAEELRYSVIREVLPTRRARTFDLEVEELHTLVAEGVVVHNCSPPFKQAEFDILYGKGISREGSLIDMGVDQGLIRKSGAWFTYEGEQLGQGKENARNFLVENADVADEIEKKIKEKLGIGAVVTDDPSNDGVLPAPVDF
Arbovirus anti repeat: second read-out of Arbovirus anti, no call of its own (marks repeat the call); inhibition, %; measured here: 10K subset replicate screen; many hits read low in the repeat;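 first of two repeat runs on a subset; 0% = infected and 100% = uninfected wells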
Active calls of the source: *; ? = inconclusive; nt = no result given. Only part of the results is shown; count on the stated rates, not on these rows.

SMILES | Mtb H37Rv | Arbovirus anti | YopH PTP inh | Mtb bLac sens | RecA intein inh | others
CCCCCn1c(CNC(=O)CCC)nc2ccccc21 | 0% | 12 | -48 | -3 | 14 | Arbovirus anti repeat=5
O=C(c1cc2c(s1)-c1ccccc1S(=O)(=O)C2)N1CCN(Cc2ccccc2)CC1 | nt | 6 | -22 | -10 | 0.6
O=C(CCc1nnc(CCCCc2ccccc2)o1)N1CCN(CCO)CC1 | -3% | nt | nt | -7 | -0.6
O=C(c1cccs1)N1CCc2ccccc2C1 | 0% | -1 | nt | 1 | 1.4
O=S(=O)(Nc1ccc(O)cc1)c1cccc2cccnc12 | -9% | 0 | -30 | -3 | nt | Arbovirus anti repeat=0
CCCOc1ccc(/C=N/Nc2ccccc2[N+](=O)[O-])c(O)c1 | -4% | -5 | -22 | 9 | -2.0
CC1(C)Cc2c(sc3c2c(=N)n(Cc2ccco2)c(=O)n3Cc2ccc(F)cc2)CO1 | 10% | -4 | -24 | 36 | nt | Arbovirus anti repeat=-5
CSc1ccc(CN(C)C(=O)c2ccc(S(=O)(=O)Nc3ccccc3)cc2)cc1 | nt | nt | nt | 4 | 0.5
COC(=O)C1=C(C)Nc2nc3ccccc3n2C1c1ccccc1F (centres undefined) | -1% | nt | nt | 1 | 5.0
CCCn1nc(NC(=O)CC)c2cc3cccc(C)c3nc21 | nt | nt | nt | 2 | -59
CC1CN(Cc2cc(=O)oc3cc(O)c(Cl)cc23)CC(C)O1 (centres undefined) | nt | nt | nt | -3 | -379
COC(=O)c1cc(NC(=O)CN2CCC(C(N)=O)(N3CCCCC3)CC2)cc(C(=O)OC)c1 | -3% | -1 | -22 | 3 | 1.4
Cc1ccc(C)c(S(=O)(=O)c2c(C)cc(C)nc2Cl)c1 | nt | nt | nt | 4 | 3.8
C[C@H](NC(=O)[C@@H]1CCC(=O)N1Cc1ccco1)c1ccccc1 | 6% | 11 | nt | -4 | -1.2
COc1ccc(CNCCC(c2ccc(OC)cc2)c2ccccc2OC)cc1 (centres undefined) | nt | nt | nt | 12 | 8.1
COc1ccc(Nc2ncnc3sc(-c4ccccc4)cc23)c(OC)c1 | 4% | nt | nt | 18 | 12
CCN1CCN(c2nc3c(c(=O)[nH]c(=O)n3C)n2CCSc2nc3ccccc3s2)CC1 | 8% | 4 | -12 | 1 | -0.2 | Arbovirus anti repeat=7
COc1ccc(CCNC(=O)C2CCN(C(=O)c3ccc(Cl)cc3)CC2)cc1OC | nt | nt | nt | 3 | -0.6
CCOC(=O)c1sc2nc(C)nc(NCCc3ccccn3)c2c1C | -3% | -15 | nt | -1 | 2.3
CCOc1ccc(S(=O)(=O)N(CC(=O)N/N=C/c2ccc(-c3ccc([N+](=O)[O-])cc3)o2)c2ccccc2)cc1 | ? | -14 | -27 | 76 | -2.2
NC(Cc1c[nH]c2ccccc12)C(=O)Nc1ccccc1 (centres undefined) | 0% | nt | nt | -12 | 0.8
CC(C)NCC(O)COc1ccc2c(c1)CCC2 (centres undefined) | -2% | -7 | 5 | 80 | -0.4
COC(=O)c1[nH]c(C)c(/C(O)=C2\C(=O)C(=O)N(CCN3CCOCC3)C2c2ccccc2OC)c1C (centres undefined) | -13% | -4 | -39 | 9 | -1.0
C/C(CC(=O)Nc1ccc2c(c1)OCCO2)=N\NC(=O)COc1ccc(C)cc1Br | nt | nt | nt | 22 | 0.9
COc1ccc2c(c1)c(=O)oc1c(C)c(OCC(=O)N3CCc4ccccc4C3)ccc12 | nt | 9 | -16 | 3 | -0.1
CCc1c(C)nc2c(C)cccc2c1SCCC#N | -4% | -3 | nt | -4 | 7.8
O=C(N/N=C/c1ccc2c(c1)OCO2)c1ccc(Cl)cc1Cl | nt | nt | nt | 2 | 2.6
Cc1cc(C)cc(Nc2c(F)c(F)c(F)c(F)c2C(=O)O)c1 | 4% | 24 | nt | -5 | -4.1
Cc1ccc(CC(=O)Nc2ccc(S(=O)(=O)Nc3ncccn3)cc2)cc1 | nt | nt | nt | 1 | -0.3
CCOc1cc(S(=O)(=O)n2c(C)nc3ccccc32)ccc1F | -2% | 1 | -9 | -1 | 22
CN(Cc1c(C(=O)N/N=C/c2ccc(F)cc2)nnn1-c1nonc1N)C1CCCCC1 | nt | nt | nt | 3 | -0.6
COc1ccc(Cl)cc1C(=O)Nc1ccc(OCC(=O)N2CCOCC2)cc1 | nt | nt | nt | -9 | -1.1
COc1ccc(Br)cc1S(=O)(=O)Nc1cccc(C)n1 | -4% | -1 | nt | -5 | -1.6
S=C(NCCCn1ccnc1)Nc1cccc(Cl)c1 | -5% | 1 | nt | -11 | -1.3
O=C(NCc1nnc(SCC(=O)N2CCCc3ccccc32)n1-c1ccccc1)c1cccc2ccccc12 | nt | -6 | 2 | 5 | 6.5
COc1ccc(NC(=O)CSc2nc(C)cs2)cc1OC | -2% | -4 | 0 | 0 | 0.8
CCN(c1ccccc1C(=O)O)S(=O)(=O)c1ccc2[nH]c(=O)[nH]c2c1 | nt | nt | nt | -1 | 0.8
O=C(CSc1nc2ccccc2o1)Nc1nc2ccccc2s1 | -3% | 3 | -55 | 7 | 5.0
COCCn1c(SCC(=O)NCC2CCCO2)nc2c([nH]c3ccccc32)c1=O (centres undefined) | nt | nt | nt | -11 | 0.1
COc1cc(Cl)c(CC(=O)c2c[nH]c3ccccc23)cc1OC | -5% | nt | nt | 1 | -2.3
O=C(Oc1cccc(-n2cnnn2)c1)C1CCCCC1 | -4% | -1 | -28 | -20 | 7.5
CC1CCN(C(=O)CSc2nncn2-c2ccccn2)CC1 | -4% | 6 | -43 | 4 | 1.1
O=C(NCc1ccc(Cl)cc1)c1ccc(Cn2cc(C(F)(F)F)ccc2=O)cc1 | -2% | -6 | -16 | -7 | 0.6
CCOc1cc(C#N)c(NC(=O)c2ccco2)cc1OCC | -12% | -19 | 0 | 12 | 0.7
CC(C)CNC(=S)N1CCC(NC(=O)c2ccco2)CC1 | 0% | 3 | nt | -1 | 0.0
COc1cc(SC)ccc1C(=O)N1CCN(c2ccccc2OC)CC1 | 1% | -21 | nt | 0 | -1.3
Cc1ccc(CN2CCSc3ccc(C(=O)NCc4ccco4)cc32)cc1 | -4% | -27 | nt | 1 | nt
O=C(CSc1n[nH]c(-c2ccccc2Br)n1)NCCN1C(=O)CSC1=O | 3% | -7 | -19 | -6 | 1.0
COC(=O)C1=C(CS(=O)(=O)c2cc(OC)ccc2OC)NC(=O)NC1c1ccc(O)c(OC)c1 (centres undefined) | nt | nt | nt | 1 | 3.5
CC(C)(C)C(=O)NC(=S)Nc1ccccc1C(=O)NC1CCCCC1 | 12% | 7 | nt | -1 | 1.9
Next part.
SMILES | Mtb H37Rv | Arbovirus anti | YopH PTP inh | Mtb bLac sens | RecA intein inh | others
Cc1cccc(-c2noc(CNC(=O)c3ccco3)n2)c1 | nt | nt | nt | 3 | -1.4
COc1ccc(NC(=S)Nc2cccc(C(C)=O)c2)cc1OC | 0% | 14 | nt | 0 | 2.8
Fc1ccc(-n2ncc3c(SCc4cccnc4)ncnc32)cc1 | 8% | -1 | nt | 3 | 12
O=C(CSc1nc2ccccc2s1)NCCOc1ccccc1 | 9% | 3 | -33 | 2 | 0.7
Cc1cccc(NC(=O)c2c(F)c(F)c(F)c(F)c2F)c1 | -6% | 14 | 0 | 0 | -0.3
O=C(CCN1CCN(c2ccccc2)CC1)c1ccc(Cl)cc1 | nt | nt | nt | 97 | -0.8
CC(C)(C)c1ccc(OCCn2nc(C(=O)O)c3ccccc3c2=O)cc1 | nt | nt | nt | 3 | 4.5
CCOC(=O)C1(Cc2ccccc2C)CCCN(C(=O)CSC)C1 (centres undefined) | nt | nt | nt | -6 | 1.5
CS(=O)(=O)N1N=C(c2ccco2)CC1c1ccccc1Cl (centres undefined) | 0% | nt | nt | -7 | 1.7
COc1ccc(CCNS(=O)(=O)CCNC(=O)c2ccc(OC)cc2)cc1 | nt | nt | nt | -1 | 0.7

Four entries already listed, arranged by number of heavy atoms, ascending.
SMILES | Mtb H37Rv | Arbovirus anti | YopH PTP inh | Mtb bLac sens | RecA intein inh | others
Cc1cccc(NC(=O)c2c(F)c(F)c(F)c(F)c2F)c1 | -6% | 14 | 0 | 0 | -0.3
O=C(CCN1CCN(c2ccccc2)CC1)c1ccc(Cl)cc1 | nt | nt | nt | 97 | -0.8
CCOC(=O)C1(Cc2ccccc2C)CCCN(C(=O)CSC)C1 (centres undefined) | nt | nt | nt | -6 | 1.5
CC(C)(C)c1ccc(OCCn2nc(C(=O)O)c3ccccc3c2=O)cc1 | nt | nt | nt | 3 | 4.5

(next part)
SMILES | Mtb H37Rv | Arbovirus anti | YopH PTP inh | Mtb bLac sens | RecA intein inh | others
OC(CN1CCN(c2ccccc2Cl)CC1)c1ccccc1 (centres undefined) | nt | nt | nt | 2 | 0.9
Cc1ccc(S(=O)(=O)N(C)Cc2cc3ccccc3[nH]c2=O)cc1 | -5% | 8 | 2 | -12 | -0.6
Cc1cc2c(sc3c(C)ccc(C)c32)c(C)n1 | 12% | nt | nt | 74 | 6.7
CCCN1CCC(NC(=O)Nc2ccc(F)cc2F)CC1 | 0% | 5 | 14 | -20 | -2.6
Cc1ccc(C2CC(C(F)(F)F)n3nc(C(=O)NCc4c(C)nn(C)c4C)c(Cl)c3N2)cc1 (centres undefined) | 5% | 8 | -8 | 12 | -0.6
COc1ccc(OC)c(C(C)NC(=S)NC2CCCCC2)c1 (centres undefined) | nt | nt | nt | -4 | 2.0
O=C(CSc1ccc(F)cc1)NCC1(N2CCOCC2)CCCCC1 | nt | nt | nt | -5 | -1.6
COc1ccc(-c2noc(CN(C)Cc3ccccc3)n2)c(OC)c1OC | nt | nt | nt | 6 | 0.6
CSC1=N/C(=C\c2ccccc2Cl)C(=O)N1N(C)C | -6% | nt | nt | 6 | 0.5
CC1(C)CC(=O)C2=C(C1)OC(/N=C/N1CCCC1)=C(C#N)C2c1ccccc1 (centres undefined) | 0% | nt | nt | -9 | 0.8
COc1ccc(NC(=O)c2ccc(-c3ccccc3Cl)o2)cc1 | -8% | -5 | -32 | 9 | 0.0
Cc1cc2nc(-c3ccc(SCC(=O)N4CCOCC4)nc3)[nH]c2cc1C | -1% | -24 | -12 | 80 | -5.7
COC(=O)CSc1nnc(CNC(=O)c2cc(OC)cc(OC)c2)n1-c1ccc(F)cc1 | -10% | 6 | nt | -9 | -0.7
Cc1nc(-c2ccc(F)cc2)c(CC(=O)N(C)CC(=O)Nc2ccc(F)cc2)s1 | nt | nt | nt | -4 | -1.0
COC(=O)CCCCCN1C(=O)NC(C2CC2)C(C(=O)OCc2ccccc2)=C1C (centres undefined) | -4% | nt | nt | 5 | 1.5
Cc1ccc(S(=O)(=O)N2CCN(S(=O)(=O)c3ccc(C)cc3)C3OCCOC32)cc1 (centres undefined) | -4% | -11 | -53 | -7 | -1.5
Oc1c(CN2CCOCC2)cc(-c2ccccc2)cc1CN1CCOCC1 | -3% | 6 | -26 | 1 | 5.4
Cc1ccc(NS(=O)(=O)c2ccc(N/N=C/c3ccncc3)c([N+](=O)[O-])c2)c(C)c1 | 4% | 1 | -20 | -5 | 2.9
Cc1cc(/C=C2\SC(=Nc3ccccc3)NC2=O)c(C)n1-c1ccc(S(N)(=O)=O)cc1 | ? | -2 | -38 | 88 | -8.0
O=C(O)CC(CC(=O)Nc1ccc(-n2ccc(C(F)(F)F)n2)cc1)c1ccccc1 (centres undefined) | 0% | nt | nt | 6 | -1.0
N#CNC(=Nc1ccccc1)SCc1ccc(C(=O)O)cc1 | -3% | 0 | nt | 2 | 6.8
O=C(Nc1ccc(C(=O)O)cc1)Nc1ccc(F)cc1F | 2% | 4 | nt | 6 | -1.5
CC(C)(C)n1ncc2c(=O)n(CC(=O)N3CCCCCC3)cnc21 | -12% | 5 | -40 | -12 | -5.7
Cc1ccccc1-n1c(=O)n(Cc2ccc(C(=O)O)cc2)c(=O)c2[nH]cnc21 | nt | nt | nt | -1 | 0.8
O=S(=O)(CCC1CCCCN1)c1ccccc1 (centres undefined) | nt | nt | nt | 4 | -1.1
CSCCC(NS(=O)(=O)c1ccc(F)cc1)C(=O)NCc1ccc(S(N)(=O)=O)cc1 (centres undefined) | 3% | nt | nt | -10 | 4.6
Cc1ccc(S(=O)(=O)N2CCOC2CNC(=O)C(=O)NCc2ccc(Cl)cc2)cc1 (centres undefined) | nt | nt | nt | -12 | 3.3
CCOc1ccccc1CN1CCNC(=O)C1CC(=O)NCCN1CCOC1=O (centres undefined) | nt | nt | nt | -4 | -1.3
N#Cc1c(Cl)c(Cl)c2nnc(-c3ccc(Br)cc3)n2c1Cl | -7% | -19 | -26 | -2 | 49*
CCCC(C)c1nc(C(N)=O)c2[nH]c(=O)n(-c3ccc(OC)cc3OC)c2n1 (centres undefined) | nt | nt | nt | ? | 4.4
O=S(=O)(c1ccc(Cl)cc1)N1CCCc2ccccc21 | nt | nt | nt | -1 | 5.1
